Source: PubChem BioAssay
Env fusion inh – inhibitors of HIV-1 Env-driven cell-cell fusion, primary screen, HeLa-JRFL effector, CEM21 target cells, luciferase; 360,000 compounds, 1.1% hits; AID 651610, 2012; inhibition, % at 12.3 µM;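 active means mean replicate inhibition score of at least 50 and every replicate individually at or above 50; inconclusive means only one of the two criteria met; inactive means mean below 50 and not all replicates reaching 50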;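 further: 0% = plate neutral controls and 100% = maraviroc near 300 nM; one replicate is shown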
PABP FP inh – PABP poly(A) RNA binding inhibitors, primary screen, biochemical, fluorescence polarization, uHTS. inhibition, % at 35 µM. Polyadenylate-binding protein 1 (Homo sapiens), P11940. 290,000 compounds, 1% hits;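 active means 50% or more with normal probe brightness, or confirmed in later tests; inconclusive means above 50% with abnormal brightness, or retests that disagree; inactive means below 50% or failed in later tests; about a fifth of its hits are not listed in these tables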;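 further: calls also rest on retests at 20 µM and on dose response follow-up; controls were probe without protein and protein plus probe with vehicle; some compounds called inactive have numbers as strong as hits; many hits fall short of the cut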
Target sequence (P11940 whole entry, looked up): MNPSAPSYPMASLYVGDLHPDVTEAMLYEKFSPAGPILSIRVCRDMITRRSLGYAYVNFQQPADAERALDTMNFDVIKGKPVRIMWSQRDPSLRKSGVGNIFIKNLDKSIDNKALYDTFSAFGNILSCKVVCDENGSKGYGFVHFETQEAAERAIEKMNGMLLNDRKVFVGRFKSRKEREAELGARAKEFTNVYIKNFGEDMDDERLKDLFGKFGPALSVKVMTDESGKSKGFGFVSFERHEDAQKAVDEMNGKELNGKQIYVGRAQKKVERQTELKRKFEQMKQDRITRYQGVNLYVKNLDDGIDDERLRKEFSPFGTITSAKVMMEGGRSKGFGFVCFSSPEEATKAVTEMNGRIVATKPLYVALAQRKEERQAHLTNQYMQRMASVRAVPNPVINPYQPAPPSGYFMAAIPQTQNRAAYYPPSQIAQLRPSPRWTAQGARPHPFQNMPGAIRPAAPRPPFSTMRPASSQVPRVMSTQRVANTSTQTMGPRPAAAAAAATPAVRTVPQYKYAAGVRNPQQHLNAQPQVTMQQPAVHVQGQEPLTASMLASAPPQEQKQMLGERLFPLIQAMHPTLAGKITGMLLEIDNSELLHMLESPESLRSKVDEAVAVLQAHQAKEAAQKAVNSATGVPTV
CSC inhib – cancer stem cell viability inhibitors, primary screen, luminescence; cancer stem cell-like cells viability; inhibition, % at 7.5 µM; 300,000 compounds, 1.1% hits;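 active means mean at 75% or more and at least half the replicates too; inconclusive means mean and replicates disagree; tested in HMLE shEcad cells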;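 further: 0% = median of negative and 100% = median of positive control wells; the first replicate is given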
MT1-MMP act inh – blockers of MT1-MMP proenzyme processing, primary screen, HT1080 RFP-PRO-GFP cells, GFP/RFP fluorescence; GFP/RFP ratio fluorescence, overnight; percent of plate control window, DMSO zero; GFP/RFP ratio change, % at 20 µM; 360,000 compounds, 0.061% hits; AID 651647, 2012;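 active means GFP/RFP ratio change of at least 30% with cell ATP level not reduced by more than half and red fluorescence within 50% of control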; further: strong numbers were not always called active
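Assay system: HT1080 RFP-PRO-GFP cells | Dosing: 20 µM single dose, 1% DMSO | Incubation: Cells overnight before dosing, compound overnight, 37 °C, 5% CO2 | Evaluation: GFP/RFP fluorescence ratio | Control set: DMSO-only wells and HT1080 RFP-L50D-GFP cell wells as references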
Rce1 inh – yeast Rce1p protease inhibitors, primary screen, biochemical, fluorescence, cell-free homogeneous; CAAX prenyl protease 2 (Saccharomyces cerevisiae (strain ATCC 204508 / S288c)), Q03530; yeast membranes, quenched prenylated peptide cleavage fluorescence; calls only; 290,000 compounds, 0.27% hits; AID 2563, 2010;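 active means fall in fluorescence gain of 50% or more versus controls, with final raw signal at or below 3038400; inconclusive means same 50% fall but final raw signal above 3038400; inactive means fall in fluorescence gain under 50%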;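 further: plate controls were neutral control wells for no effect and wells lacking membranes for full effect; tested at 10 µM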
Yeast UUG start – modulators of yeast start codon fidelity, primary screen, whole organism, S. cerevisiae, single point, plate reader | S. cerevisiae UUG-firefly luciferase reporter, luminescence/redox ratio | activity score, % at 18.7 µM | 350,000 compounds, 0.13% hits;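 active means replicate mean at a twofold rise or more, about +100% in these data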;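 further: firefly luciferase made from a UUG start codon reports start codon fidelity; reporter light over untreated wells divided by growth signal over untreated wells; some hits fall short of that in this replicate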
eIF4H inh – human eIF4H binding inhibitors, primary screen, translation initiation inhibitor project, biochemical, uHTS, fluorescence polarization; eIF4H fluorescence polarization binding assay; inhibition, % at 35 µM; 290,000 compounds, 0.94% hits;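 active means 50% or more with normal probe brightness, or confirmed in later tests; inconclusive means above 50% with abnormal brightness, or retests that disagree; inactive means below 50% or failed in later tests; about a fifth of its hits are not listed in these tables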;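 further: calls also rest on retests at 20 µM and on dose response follow-up; 0% = protein and probe with vehicle and 100% = probe without protein; strong numbers were not always called active; many hits fall short of the cut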
MT1-MMP act inh RFP – also measured in MT1-MMP act inh; calls as there; RFP signal change, %; measured here: RFP expression control read;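 0 = vehicle wells; hits needed this value within 50% of zero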
Numbers without * were called inactive.

The first two compounds (preview)
For CCOC(=O)C1=C(N)OC2=C(C(=O)CCC2)C1c1ccccc1OCC (stereo not given) the results were Env fusion inh -47, PABP FP inh -3, CSC inhib -7, MT1-MMP act inh 1, Rce1 inh inactive, Yeast UUG start -2, eIF4H inh -5 and MT1-MMP act inh RFP 2.
`CC(CC(=O)NCc1ccccc1)C1CCCO1` (stereo not given) gave Env fusion inh 9, PABP FP inh -2, CSC inhib -14, MT1-MMP act inh 5, Rce1 inh inactive, Yeast UUG start -8, eIF4H inh -10 and MT1-MMP act inh RFP 4.

Results (from the top)
For CCOC(=O)C1=C(N)OC2=C(C(=O)CCC2)C1c1ccccc1OCC (stereo not given) the results were Env fusion inh -47, PABP FP inh -3, CSC inhib -7, MT1-MMP act inh 1, Rce1 inh inactive, Yeast UUG start -2, eIF4H inh -5 and MT1-MMP act inh RFP 2.
`CC(CC(=O)NCc1ccccc1)C1CCCO1` (stereo not given) gave Env fusion inh 9, PABP FP inh -2, CSC inhib -14, MT1-MMP act inh 5, Rce1 inh inactive, Yeast UUG start -8, eIF4H inh -10 and MT1-MMP act inh RFP 4.
For CSCCC(NC(=O)c1ccccc1Cl)C(=O)N1CC(C)OC(C)C1 (stereo not given) the results were Env fusion inh 4, CSC inhib -20, MT1-MMP act inh 2, Yeast UUG start -3 and MT1-MMP act inh RFP 3.
Screening CC(=O)Nc1ccc(S(=O)(=O)Nc2ccc(NC(=O)c3ccco3)cc2)cc1 returned PABP FP inh 4, CSC inhib 6, MT1-MMP act inh 2, Rce1 inh inactive, Yeast UUG start 2, eIF4H inh -10 and MT1-MMP act inh RFP 1.
Screening COC(=O)c1ccc2nc(-c3ccc(OC)c(OC)c3)c(Cc3ccc(C)cc3)n2c1 returned Env fusion inh -9, MT1-MMP act inh -1, Yeast UUG start 3 and MT1-MMP act inh RFP 4.
Cc1ccc(CC(=O)N(C)CC(=O)Nc2ccc(N3CCOCC3)cc2)cc1C was read as Env fusion inh -9, CSC inhib -3, MT1-MMP act inh 4, Rce1 inh inactive, Yeast UUG start 0 and MT1-MMP act inh RFP 0.
Cc1ccc(-c2nc3c(Cl)cc(C(F)(F)F)cn3c2Cc2cccc(F)c2)cc1 was read as Env fusion inh 0, MT1-MMP act inh 3, Yeast UUG start -18 and MT1-MMP act inh RFP 3.
For CCOc1nc(Nc2ccc(OC)cc2)nc(N2CCOCC2)n1 the results were Env fusion inh -4, PABP FP inh -6, CSC inhib -2, MT1-MMP act inh -1, Rce1 inh inactive, Yeast UUG start -24, eIF4H inh -1 and MT1-MMP act inh RFP 2.
`Oc1ccccc1C1=Nc2ccccc2N=C(c2cccs2)C1` gave PABP FP inh 0, CSC inhib 49, MT1-MMP act inh -9, Rce1 inh inactive, Yeast UUG start -18, eIF4H inh -8 and MT1-MMP act inh RFP -15.
C=CCOc1ccc(C2NC(=S)NC3=C2CCc2ccccc23)cc1 (stereo not given) was read as Env fusion inh 4, PABP FP inh 8, CSC inhib -12, MT1-MMP act inh 1, Rce1 inh inactive, Yeast UUG start -22, eIF4H inh -10 and MT1-MMP act inh RFP 1.
Screening COC(=O)C(Nc1ccccc1Cl)(c1cc(C)c(O)c(C)c1)C(F)(F)F (stereo not given) returned PABP FP inh -6, CSC inhib 3, MT1-MMP act inh -9, Rce1 inh inactive, Yeast UUG start 13, eIF4H inh 5 and MT1-MMP act inh RFP -10.
`NNC(=O)c1cccc(Cn2cc(Br)c([N+](=O)[O-])n2)c1` gave Env fusion inh -10, PABP FP inh 8, CSC inhib 5, MT1-MMP act inh 5, Rce1 inh inactive, eIF4H inh -10 and MT1-MMP act inh RFP 5.
`FC(F)(F)c1cccc(-n2cccc2/C=N/n2cnnc2)c1` gave Env fusion inh -15, PABP FP inh 13, CSC inhib -6, MT1-MMP act inh 1, Rce1 inh inactive, Yeast UUG start 1, eIF4H inh 4 and MT1-MMP act inh RFP 3.
For CCn1cc(C=C2C(=O)c3ccccc3C2=O)c2ccccc21 the results were Env fusion inh -91, PABP FP inh 4, MT1-MMP act inh -8, Rce1 inh inactive, Yeast UUG start -12, eIF4H inh inconclusive and MT1-MMP act inh RFP 3.
Screening Cc1cccc(OCC(=O)Nc2cccc(O)c2)c1 returned Env fusion inh -188, PABP FP inh -1, CSC inhib 10, MT1-MMP act inh 3, Rce1 inh inactive, Yeast UUG start -4, eIF4H inh -2 and MT1-MMP act inh RFP 2.
CC(C)C(=O)OCC(=O)Nc1ccc2c(c1)CCC2 was read as Env fusion inh -87, PABP FP inh 8, MT1-MMP act inh -8, Rce1 inh inactive, Yeast UUG start -8, eIF4H inh -1 and MT1-MMP act inh RFP 0.
COCCN1Cc2cccc(C(=O)Nc3cc(OC)ccc3OC)c2C1=O was read as Env fusion inh -34, PABP FP inh -1, CSC inhib -8, MT1-MMP act inh 3, Rce1 inh inactive, Yeast UUG start -11, eIF4H inh 0 and MT1-MMP act inh RFP -2.
`Cc1ncc(CN2CCN(C(C)C)C(CCO)C2)s1` (stereo not given) gave Env fusion inh -12, PABP FP inh 4, CSC inhib -10, MT1-MMP act inh -4, Rce1 inh inactive, Yeast UUG start -9, eIF4H inh -4 and MT1-MMP act inh RFP -2.
`CCN1CCN(C(=O)c2cc(S(=O)(=O)Nc3ccc(S(C)(=O)=O)cc3)ccc2Cl)CC1` gave Env fusion inh -4, PABP FP inh 16, CSC inhib -9, MT1-MMP act inh 1, Rce1 inh inactive, eIF4H inh -3 and MT1-MMP act inh RFP 2.
Screening C/C(CCc1ccccc1)=N\NC(=O)c1ccccc1 returned Env fusion inh -11, PABP FP inh 2, CSC inhib -4, MT1-MMP act inh 4, Rce1 inh inactive, eIF4H inh -7 and MT1-MMP act inh RFP 13.
CCCCn1c(N)c(N(CC(C)C)C(=O)c2ccc([N+](=O)[O-])o2)c(=O)[nH]c1=O was read as CSC inhib 5, MT1-MMP act inh -52, Yeast UUG start -13 and MT1-MMP act inh RFP 8.
Screening Cc1ccnc(NS(=O)(=O)c2ccc(NC(=O)c3oc4ccc(F)cc4c3C)cc2)n1 returned Env fusion inh 0, PABP FP inh 2, CSC inhib -26, MT1-MMP act inh -1, Rce1 inh inactive, Yeast UUG start -24, eIF4H inh 5 and MT1-MMP act inh RFP -1.
`Cc1cc(NC(=O)CSc2nc3c([nH]c4ccccc43)c(=O)n2-c2cccc(C(F)(F)F)c2)no1` gave PABP FP inh -1, MT1-MMP act inh -8, Rce1 inh inactive, Yeast UUG start -6, eIF4H inh 2 and MT1-MMP act inh RFP -14.
For O=S(=O)(c1cccc2nsnc12)N1CCN(C/C=C\c2ccccc2)CC1 the results were PABP FP inh -3, CSC inhib 3, MT1-MMP act inh -1, Rce1 inh inactive, Yeast UUG start -11, eIF4H inh 1 and MT1-MMP act inh RFP -2.
Screening O=C(Cn1c(C(F)(F)F)nc2ccccc21)NCCN1CCCC1 returned Env fusion inh 0, PABP FP inh -8, CSC inhib 2, MT1-MMP act inh 2, Rce1 inh inactive, Yeast UUG start -6, eIF4H inh -2 and MT1-MMP act inh RFP 3.
Screening O=C(CNCc1ccccc1)Nc1cccc(Cl)c1Cl returned Env fusion inh 4, PABP FP inh 1, CSC inhib -9, MT1-MMP act inh 7, Rce1 inh inactive, Yeast UUG start -12, eIF4H inh -1 and MT1-MMP act inh RFP 2.
Cc1ccc(S(=O)(=O)N(C)c2ccc(OC(=O)c3cccs3)cc2)cc1 was read as Env fusion inh 24, CSC inhib 3, MT1-MMP act inh -3, Yeast UUG start -4 and MT1-MMP act inh RFP -1.
`Cc1cc(C)c(NC(=O)CCCN2CCCC2)c(C)c1` gave Env fusion inh -21, PABP FP inh 4, CSC inhib -11, MT1-MMP act inh 2, Rce1 inh inactive, Yeast UUG start -12, eIF4H inh -14 and MT1-MMP act inh RFP 6.
`CC(C)CC(c1nnnn1C1CCCCC1)N1CCN(c2ncccn2)CC1` (stereo not given) gave Env fusion inh -18, PABP FP inh -7, CSC inhib 5, MT1-MMP act inh -6, Rce1 inh inactive, Yeast UUG start 2, eIF4H inh 5 and MT1-MMP act inh RFP -6.
Screening O=[N+]([O-])c1ccc(N2CCCCC2)nc1N1CCCCC1 returned Env fusion inh -1, PABP FP inh 13, CSC inhib 0, MT1-MMP act inh 4, Rce1 inh inactive, Yeast UUG start 0, eIF4H inh 14 and MT1-MMP act inh RFP -2.
For CCC(Sc1nc2ncccc2[nH]1)C(=O)NCCc1ccccc1 (stereo not given) the results were PABP FP inh 6, CSC inhib 4, MT1-MMP act inh 0, Rce1 inh inactive, Yeast UUG start -16, eIF4H inh -9 and MT1-MMP act inh RFP 0.
Screening Cc1onc(C(=O)N2CCC(Cc3ccccc3)CC2)c1[N+](=O)[O-] returned Env fusion inh 17, PABP FP inh 4, MT1-MMP act inh -6, Rce1 inh inactive, Yeast UUG start -9, eIF4H inh -4 and MT1-MMP act inh RFP -6.
`COc1ccc(Cc2c(C(C)(C)C)nc3c(C)cc(Br)cn23)c(C)c1` gave Env fusion inh -3, MT1-MMP act inh -1, Yeast UUG start 42 and MT1-MMP act inh RFP -2.
For Cc1ccc(C(=O)N/C(=C\c2ccco2)C(=O)NCCCn2ccnc2)cc1C the results were PABP FP inh 1, CSC inhib 3, MT1-MMP act inh 1, Rce1 inh inactive, Yeast UUG start -9, eIF4H inh 2 and MT1-MMP act inh RFP 5.
For CCOc1ncccc1C(=O)OCC(=O)Nc1ccc(C(C)C)cc1 the results were Env fusion inh 9, PABP FP inh 5, CSC inhib 6, MT1-MMP act inh 3, Rce1 inh inactive, eIF4H inh -10 and MT1-MMP act inh RFP 1.
Screening Cc1cccc(N2CCN(C(=O)c3ccccc3SCC(=O)N3CCCC3)CC2)c1C returned Env fusion inh 2, CSC inhib -9, MT1-MMP act inh 16, Yeast UUG start -14 and MT1-MMP act inh RFP -12.
For COCCN(C)C(=O)CCc1nnc(Cc2ccc(-c3ccccc3)cc2)o1 the results were Env fusion inh 13, PABP FP inh -3, CSC inhib 18, MT1-MMP act inh -1, Rce1 inh inactive, Yeast UUG start -1, eIF4H inh 0 and MT1-MMP act inh RFP -3.
Screening COc1ccc(N2CCN(C(=O)CSc3ccc([N+](=O)[O-])cc3)CC2)cc1 returned Env fusion inh 1, PABP FP inh -16, CSC inhib 9, MT1-MMP act inh 3, Rce1 inh inactive, eIF4H inh -7 and MT1-MMP act inh RFP -4.
CCC(=O)N(Cc1ccc2c(c1)OCO2)Cc1cc2cc(OC)ccc2[nH]c1=O was read as PABP FP inh 2, CSC inhib -9, MT1-MMP act inh 4, Rce1 inh inactive, Yeast UUG start -10, eIF4H inh 6 and MT1-MMP act inh RFP -1.
Screening COc1ccc(C(CNC(=O)COc2cc(C)c(Cl)c(C)c2)N2CCCCC2)cc1 (stereo not given) returned Env fusion inh 25, PABP FP inh -9, MT1-MMP act inh -10, Rce1 inh active, Yeast UUG start -6, eIF4H inh 46 and MT1-MMP act inh RFP -5.
`CCC(CC)CN1C(N(C)C)=NC[C@@H]1CC(C)C` gave Env fusion inh -8, CSC inhib -9, MT1-MMP act inh 2, Yeast UUG start -15 and MT1-MMP act inh RFP -1.
`CCNC(=O)NC(=O)C(C)OC(=O)c1cccn1C` (stereo not given) gave Env fusion inh -7, PABP FP inh 3, CSC inhib -3, MT1-MMP act inh 1, Rce1 inh inactive, Yeast UUG start -10, eIF4H inh 0 and MT1-MMP act inh RFP 4.

This is a subset. The share of hits here may be higher or lower than overall.
